Compound activity deposited in PubChem by National Center for Advancing Translational Sciences (NCATS).
GLA inh pH 4.5 = inhibitors of human alpha-galactosidase A at pH 4.5. 230,000 tested, under 10 active. AID 1467. activity change, negative = inhibition, % at 105 µM. P06280. purified enzyme, 4-MU-alpha-Gal fluorescence, pH 4.5; inconclusive = small, poorly fitted or top-dose-only inhibition, or a rising curve; inactive = flat fitted curve, though single readings scatter; no compound was filed as active;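 note: 0% = full activity with enzyme and -100% = basal without enzyme; dose as in the result columns while the protocol names 77 µM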
miR-21 reporter = raises the signal of a miR-21 reporter. HeLa miR-21 FLuc reporter, luciferase, 48 h. 340,000 tested, under 10 active. Potency, µM (series often up to 38.3 µM), without a hit: top-dose reporter change, positive = more light; active = well fitted rising curve with a large enough effect; inconclusive = small, poorly fitted or top-dose-only effect; inactive = no such curve, though single readings can be large or run the other way;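 note: % of control where 0% means no effect; miR-21 action dims this reporter so a rising signal means less miR-21 action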
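Compounds were titrated across several concentrations (up to approximately 40 uM) and incubated 48 hours with HeLa miR-21-FLuc reporter cells (miR-21 target sequence downstream of FLuc, endogenous miR-21). Readout was firefly luciferase luminescence after lytic detection reagent.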
Rango dissoc inh = inhibitors of RanGTP-induced Rango-importin beta complex dissociation; 340,000 compounds, 0.071% hits; Biochemical FRET Rango-importin beta, RanGTP-induced dissociation; AID 540253; O95149+P62826; Potency, µM (doses to about 46.1 µM), for inactives: top-dose activity change, negative = inhibition; active means falling FRET ratio curve, often poorly fitted, with flat reads before Ran was added; inconclusive means other falling curves, or compound fluorescence or quenching; inactive means flat or rising ratio curve;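 note: potency is the fitted concentration of half-maximal effect; % of control where 0% means no effect; nearly all actives have a fitted effect of over 45% in size; -100% = wells without RanGTP and RCC1; the record marks most hits as doubtful in a second field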
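Rango/importin beta premix (0.1/0.25 uM final), PBS + 1 mM DTT + 0.02% Tween-20 + 0.1% BSA; cpd 5 min RT; FRET pre-read; + RanGTP-RCC1 (0.6 uM Ran, 2 mM GTP, 0.2 uM RCC1); 45 min RT; FRET post-read, ex 430, em 486/530 nm.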
Rango-impB inh = inhibitors of Rango-importin beta complex formation; Potency, µM (top dose mostly 92.2 µM), for inactives: at the top dose inhibition of complex formation; Rango CFP/YFP FRET sensor + importin beta, 45 min; AID 540263; 340,000 compounds, 0.031% hits; active = rising FRET ratio curve, often small or poorly fitted; inconclusive = mostly compound fluorescence or quenching in the first reads; inactive = flat curves in all reads;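 note: potency is the fitted concentration of half-maximal effect; 0% = DMSO wells and 100% = buffer wells lacking importin beta; nearly all actives have a fitted effect of over 15% in size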
Target sequence (Q14974 whole entry, looked up): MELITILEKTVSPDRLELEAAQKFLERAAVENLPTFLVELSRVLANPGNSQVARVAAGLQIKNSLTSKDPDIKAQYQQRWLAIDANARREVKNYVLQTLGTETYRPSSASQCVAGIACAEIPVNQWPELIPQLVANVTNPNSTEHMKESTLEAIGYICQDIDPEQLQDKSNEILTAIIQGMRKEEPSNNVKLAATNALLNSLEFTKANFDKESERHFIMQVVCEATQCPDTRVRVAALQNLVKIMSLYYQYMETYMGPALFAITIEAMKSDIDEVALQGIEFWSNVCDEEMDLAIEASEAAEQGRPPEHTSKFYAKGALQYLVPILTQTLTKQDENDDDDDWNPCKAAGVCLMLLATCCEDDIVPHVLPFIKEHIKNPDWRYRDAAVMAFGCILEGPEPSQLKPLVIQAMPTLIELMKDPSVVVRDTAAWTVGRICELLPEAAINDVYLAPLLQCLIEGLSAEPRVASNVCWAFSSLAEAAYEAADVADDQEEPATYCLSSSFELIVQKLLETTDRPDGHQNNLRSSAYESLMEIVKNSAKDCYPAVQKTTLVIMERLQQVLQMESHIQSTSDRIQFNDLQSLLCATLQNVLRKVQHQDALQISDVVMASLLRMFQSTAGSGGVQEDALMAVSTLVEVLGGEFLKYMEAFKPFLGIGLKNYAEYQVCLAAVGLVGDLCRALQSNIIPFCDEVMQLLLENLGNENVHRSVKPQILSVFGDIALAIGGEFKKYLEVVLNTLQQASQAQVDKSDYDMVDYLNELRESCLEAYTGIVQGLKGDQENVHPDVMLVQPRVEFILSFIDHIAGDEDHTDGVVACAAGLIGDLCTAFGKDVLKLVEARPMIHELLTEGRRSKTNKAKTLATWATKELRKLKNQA
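FRET biosensor Rango (snurportin 1 IBB between N-terminal EYFP and C-terminal Cerulean), 50 nM in PBS/1 mM DTT/0.02% Tween-20/0.1% BSA, preincubated 5 min RT with compound; 0.125 microM importin beta added, 45 min RT, CFP/YFP FRET ratio read.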
The depositor's hits bear a star; u = inconclusive; x = not tested or not shown. The list is partial (hit frequency here may not be typical).

Results follow in this order: Rango-impB inh	GLA inh pH 4.5	Rango dissoc inh	miR-21 reporter
[1] O=C(NC1CCCCC1)C1CN(S(=O)(=O)c2ccccc2)CCN1S(=O)(=O)c1ccccc1 (stereo not given)
  -2.2%	10	-1%	-6%
[2] COc1ccc2oc(C(=O)OCC(=O)NC3(C#N)CCCC3)c(C)c2c1
  -3.8%	x	-16%	x
[3] O=c1cc(NS(=O)(=O)c2ccccc2)nc(SCc2ccccc2Cl)[nH]1
  0.2%	0	5%	-5%
[4] Cc1ccc(Cl)c2c1NC(=O)C2(O)CC(=O)c1ccc(Br)cc1 (stereo not given)
  -2.0%	-3	u	1%
[5] N#Cc1ccccc1S(=O)(=O)N1CCN(C(=O)CCC2CCCC2)CC1
  0.5%	x	-6%	x
[6] COc1ccc(C(CNC(=O)C(=O)NC2CCCC2)N2CCN(C)CC2)cc1 (stereo not given)
  7.4%	x	2%	x
[7] CCC(=O)N1CCc2cc(S(=O)(=O)N3CCCCC3CC)ccc21 (stereo not given)
  -2.0%	x	40%	1%
[8] Cc1cc(C)n2nc(CC(=O)NC3CCCC(C)C3C)nc2n1 (stereo not given)
  -1.2%	0	19%	0%
[9] Clc1ccc(OCCN2CCN(c3ncnc4sccc34)CC2)cc1
  0.1%	-2	-11%	23%
[10] c1ccc(C2(Cn3ccc4ccccc43)OCCO2)cc1
  -2.5%	-3	-14%	0%
[11] COC(=O)CSc1nc(C)c(C(C)=O)cc1C#N
  0.0%	6	8%	-27%
[12] Cc1ccc(NC(=O)Cn2ccsc2=N)cc1S(=O)(=O)N(C)C
  1.5%	6	-9%	6%
[13] Cc1ccc(Cl)cc1NC(=O)CN1C(=O)NC2(CCCCCC2)C1=O
  -4.0%	x	6%	x
[14] CCOC(=O)C(C)Sc1nnc(Cc2cc(=O)[nH]c(=O)[nH]2)n1-c1ccc(Cl)cc1 (stereo not given)
  18%	-9	-4%	-6%
[15] COc1ccccc1CCNS(=O)(=O)c1cn(C)c(=O)n(C)c1=O
  -2.9%	3	0%	1%
[16] Cn1cnc2cc(NC(=O)c3ccco3)ccc21
  -0.7%	-7	0%	-32%
[17] CCCCn1c(=O)c(CCC(=O)OC(C)C(=O)Nc2cccc(Cl)c2Cl)nc2ccccc21 (stereo not given)
  -1.4%	2	-2%	-6%
[18] CCN(CC)S(=O)(=O)c1ccc(C)c(NC(=O)COc2ccc(Cl)cc2Br)c1
  -1.1%	10	19%	-8%
[19] O=C1CC(c2ccccc2)=NO1
  -0.2%	x	-8%	x
[20] COc1cc(/C=C2\SC(=O)N(CCNC(=O)c3c(C)noc3C)C2=O)cc(OC)c1OC
  0.0%	x	-4%	x
[21] CCOC(=O)c1[nH]c2ccc(Br)cc2c1NC(=O)CCN1CCN(C(=O)OCC)CC1
  -4.2%	-5	-9%	0%
[22] COc1cc(OC)c2c(c1)O/C(=C\c1ccccc1)C2=O
  -3.4%	x	17%	x
[23] O=C(Nc1cccc(C(F)(F)F)c1)c1cc(-c2cccs2)on1
  1.4%	0	4%	-3%
[24] COc1ccccc1-c1nn(-c2ccccc2)cc1C(=O)N1CCc2ccccc2C1
  1.4%	x	1%	x
[25] O=C(Nc1ccccc1C(F)(F)F)c1cccnc1
  -0.8%	7	15%	1%
[26] CC(NC(=O)c1ccccc1NC(=O)CSc1nnnn1C)c1ccccc1 (stereo not given)
  7.7%	4	30%	0%
[27] Cc1ccc(C)c(-n2ccnc2SCC(=O)Nc2cccc(S(=O)(=O)NC3=NCCC3)c2)c1
  2.8%	x	2%	x
[28] Cc1ccc(NC(=O)C2C3CCC(O3)C2C(=O)O)c(Br)c1 (stereo not given)
  -1.0%	x	1%	-14%
[29] CCn1c(=O)c(C(=O)Nc2ccc(C)cc2)c(O)c2ccccc21
  -3.1%	x	-3%	-15%
[30] C=C[C@@H]1c2ccccc2N(S(=O)(=O)c2ccc(C)cc2)[C@H](c2ccccc2)C1(C#N)C#N
  u	x	24%	x

Nothing new here: an excerpt of the list.
Results follow in this order: Rango-impB inh	GLA inh pH 4.5	Rango dissoc inh	miR-21 reporter
[16] Cn1cnc2cc(NC(=O)c3ccco3)ccc21
  -0.7%	-7	0%	-32%
[17] CCCCn1c(=O)c(CCC(=O)OC(C)C(=O)Nc2cccc(Cl)c2Cl)nc2ccccc21 (stereo not given)
  -1.4%	2	-2%	-6%
[18] CCN(CC)S(=O)(=O)c1ccc(C)c(NC(=O)COc2ccc(Cl)cc2Br)c1
  -1.1%	10	19%	-8%
[19] O=C1CC(c2ccccc2)=NO1
  -0.2%	x	-8%	x
[20] COc1cc(/C=C2\SC(=O)N(CCNC(=O)c3c(C)noc3C)C2=O)cc(OC)c1OC
  0.0%	x	-4%	x
[21] CCOC(=O)c1[nH]c2ccc(Br)cc2c1NC(=O)CCN1CCN(C(=O)OCC)CC1
  -4.2%	-5	-9%	0%
[22] COc1cc(OC)c2c(c1)O/C(=C\c1ccccc1)C2=O
  -3.4%	x	17%	x

Following part:
Results follow in this order: Rango-impB inh	GLA inh pH 4.5	Rango dissoc inh	miR-21 reporter
[31] Cc1sc2nc(COC(=O)CNC(=O)c3ccc(C(C)(C)C)cc3)[nH]c(=O)c2c1C
  -1.5%	0	-8%	-26%
[32] CC(C)C(=O)Nc1ccc(NC(=O)c2cccc3c(Br)cccc23)cc1
  0.1%	x	1%	1%
[33] Brc1ccc(C2=CSC3=NCCN23)cc1
  -0.6%	4	-3%	4%
[34] COc1ccc(OCC(=O)Nc2ccc3oc(-c4ccncc4)nc3c2)cc1
  -5.1%	0	-4%	3%
[35] Cc1ccc(C(=O)N2[C@@H]3CN(C)C(=O)[C@@]2(Cc2ccccc2)[C@H]2C(=O)N(C)C(=O)[C@@H]32)cc1
  -0.9%	x	-15%	x
[36] CCOC(=O)c1sc(NC(=O)CSc2nc3ccccc3o2)c(C(=O)OCC)c1C
  -5.1%	5	-3%	-1%
[37] O=C(NCC(c1ccco1)N1CCN(c2ccc(F)cc2)CC1)C(=O)NC1CC1 (stereo not given)
  2.8%	x	-11%	x
[38] O=C(c1cccs1)N(Cc1ccc(F)cc1)C1CCS(=O)(=O)C1 (stereo not given)
  -1.3%	x	-8%	-1%
[39] CSCCC(NS(=O)(=O)c1ccc(C)cc1)C(=O)N1CCN(S(=O)(=O)c2ccc(F)cc2)CC1 (stereo not given)
  1.3%	x	2%	x
[40] COc1ccc(NC(=O)CCOc2cc(C)ccc2C)cc1S(=O)(=O)N1CCCCC1
  -1.9%	x	0%	x
[41] COc1ccc(/C=N/NC(=O)CCNc2n[nH]c(=O)[nH]c2=O)c(OC)c1
  0.5%	5	-3%	2%
[42] COC(=O)Cn1c(=O)c2c(nc3n2CC(C)CN3Cc2ccccc2)n(C)c1=O (stereo not given)
  -1.6%	x	-4%	4%
[43] O=C(O)c1ccc([N+](=O)[O-])c(CS(=O)(=O)c2ccc(Cl)cc2)c1
  -2.9%	2	-8%	-1%
[44] COCCNc1ccc([N+](=O)[O-])cc1C(=O)NC1CCCc2ccccc21 (stereo not given)
  -3.5%	x	0%	0%
[45] O=S(=O)(NCC(c1cccnc1)N1CCN(Cc2ccccc2)CC1)c1ccccc1 (stereo not given)
  0.2%	4	0%	-9%

Entries of single compounds, quoted from the list. Order of screens: Rango-impB inh	GLA inh pH 4.5	Rango dissoc inh	miR-21 reporter
Brc1ccc(C2=CSC3=NCCN23)cc1 reads -0.6%	4	-3%	4%
COc1ccc(/C=N/NC(=O)CCNc2n[nH]c(=O)[nH]c2=O)c(OC)c1 reads 0.5%	5	-3%	2%

Next section
Results follow in this order: Rango-impB inh	GLA inh pH 4.5	Rango dissoc inh	miR-21 reporter
[46] CC(C)c1ccc(OCC(=O)NNC(=S)NC(=O)c2cccs2)c(Br)c1
  0.8%	x	u	-2%
[47] C(=N\c1c(-c2ccccc2)nc2n1CCS2)/c1ccccc1
  -0.4%	-11	8%	-10%
[48] CCN(CC)S(=O)(=O)c1ccc(NS(=O)(=O)CC23CCC(CC2=O)C3(C)C)cc1 (stereo not given)
  -2.4%	1	-14%	-10%
[49] CCCCc1nc2cc(C(=O)N3CCCC(OCCC)C3)ccc2o1 (stereo not given)
  -0.1%	x	-1%	-41%
[50] NNC(=O)COc1ccc2oc3c(c2c1)CCCC3
  0.9%	x	5%	-5%
[51] COc1ccc(S(=O)(=O)N2CCc3ccccc32)cc1C(=O)NC1(C)CCS(=O)(=O)C1 (stereo not given)
  u	x	1%	x
[52] O=C(Nc1ccsc1C(=O)O)c1ccccc1Cl
  -0.9%	x	11%	-6%
[53] Cc1ccccc1NC(=O)c1cccc(N2C(=O)C3CCCCC3C2=O)c1 (stereo not given)
  -1.2%	x	-3%	0%
[54] CCOc1ccccc1N(CC(=O)NC1CCCC1)C(=O)CNC(=O)c1cccs1
  4.9%	x	0%	-3%
[55] CCC(CC)NC(=O)c1ccc(Cl)cc1
  4.0%	-6	16%	-2%
[56] CCCN(CCC)S(=O)(=O)c1cc(Br)cc2c1N(C(=O)CC)CC2
  -1.6%	-3	8%	15%
[57] CCc1ccccc1NC(=O)CN(C)C(=O)CSc1nn(-c2ccc(F)cc2)c(=S)s1
  2.4%	-1	1%	-4%
[58] CCOC(=O)C1CCCN(CC(=O)Nc2c(C(=O)OC)[nH]c3ccc(Br)cc23)C1 (stereo not given)
  -0.9%	-14	-6%	19%
[59] O=C(c1ccc(S(=O)(=O)c2ccc(F)cc2)c([N+](=O)[O-])c1)N1CCCCCC1
  -0.1%	-23	-16%	24%
[60] CCN(CC)S(=O)(=O)c1cc(C(=O)Nc2cc(C)on2)ccc1Cl
  -1.1%	x	2%	11%
[61] CCOC(=O)/C(=C\c1ccc(Cl)cc1)c1nc2sc(C)c(C)c2c(=O)[nH]1
  u	5	-22%	-13%
[62] Cc1ccc(C(=O)N/N=C(\CC(C)C)c2ccccc2)cc1
  1.8%	4	0%	-51%
[63] COc1cccc(C2CC(c3ccc(C)cc3)Nc3nc(N)nn32)c1 (stereo not given)
  -3.3%	1	-27%	-1%
[64] COc1ccc(-n2cc(C#N)c(=O)n(Cc3ccc(F)cc3)c2=O)cc1
  -2.5%	0	7%	15%
[65] O=C(NCc1ccccc1)c1ccc2nnsc2c1
  -1.2%	-7	-1%	-2%
[66] CCNC(=S)Nc1ccc(Cl)cc1
  -0.1%	-1	8%	-6%
[67] COc1ccc(CNC(=O)CN2C(=O)NC(C)(c3ccc(C(C)(C)C)cc3)C2=O)cc1 (stereo not given)
  -0.6%	x	21%	11%
[68] CCOC(=O)c1ccc(NS(=O)(=O)c2cc3c4c(c2)CCN4C(=O)CC3)cc1
  -0.3%	x	-29%	x
[69] C=CCOc1c(CNC2CCCC2)cc(Cl)cc1OC
  -1.1%	1	-1%	2%
[70] CCN(Cc1ccccc1)S(=O)(=O)c1cn(C)cn1
  -0.3%	x	10%	0%
[71] Cc1nonc1NC(=O)c1ccc(Cl)c(S(=O)(=O)N2CCCCC2)c1
  -2.6%	-7	-8%	7%
[72] COC(=O)COc1ccccc1C(=O)Nc1ccc(OC)cc1
  2.0%	-6	16%	-2%
[73] CO/N=C/c1cc([N+](=O)[O-])ccc1Sc1ccc(C)cc1
  -0.2%	-4	29%	6%
[74] O=C(c1cn(Cc2ccccc2)nc1-c1cccnc1)N1CCN(Cc2c(F)cccc2Cl)CC1
  -3.0%	x	1%	x
[75] CC1Cc2ccccc2N1C(=O)COc1cccc(-n2cnnn2)c1 (stereo not given)
  11%	-9	21%	1%
[76] CC(C)C(c1nnnn1Cc1cccs1)N1CCN(C(=O)c2ccco2)CC1 (stereo not given)
  0.8%	3	-4%	17%
[77] O=C1C(c2ccc(F)cc2)N(C2CCCCC2)C(=O)CN1C1CCCC1 (stereo not given)
  -1.5%	10	0%	-10%
[78] CC(C)C[C@H](NC(=O)NCc1ccc(Cl)cc1)C(=O)O
  1.0%	-7	7%	0%
[79] Cc1cccc(C)c1NC(=O)CS(=O)CC(=O)NCC1OCCc2ccccc21 (stereo not given)
  -0.6%	-10	24%	-1%
[80] O=C(Cc1cscn1)c1ccc(O)cc1O
  -1.1%	-3	-5%	-6%
[81] COc1ccc(NC(=S)NC23CN4CN(CN(C4)C2)C3)c(OC)c1
  -0.4%	2	0%	-3%
